Screening results: PubChem, National Center for Advancing Translational Sciences (NCATS)
A488 fluor: A488 region autofluorescence; compound autofluorescence, A488 spectral region, dye equivalency; stronger effect = higher value; max dye equivalency, M; actives 0.1% (n = 59,000); AID 591; active = above 10 nM dye equivalent; inconclusive = 1 to 10 nM; inactive = 1 nM or less; about half of its hits are not listed in these tables;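 also: highest value over a series up to 38 µM; compound alone in buffer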
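Compound autofluorescence was read in 100 mM Tris pH 8.0 after 15 min at room temperature, ex 480 nm/em 540 nm. Intensities were converted to A488 dye-equivalent concentration using an on-plate six-point A488 standard curve.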
AID923: qHTS Assay for Allosteric/Competitive Inhibitors of Caspase-1: Spectroscopic Profiling in AFC Spectral Region; actives 1.1% (n = 75,000); AID 923, 2007; compound fluorescence, AFC spectral region (405/520 nm); almost no hit is shown here; Potency, µM (doses to about 57.5 µM), for inactives: at the top dose fluorescence increase, actives largely listed as activators; active = well fitted activation curve with a large enough effect; inconclusive = small, poorly fitted or top-dose-only effect;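 also: potency is read from the fitted curve at half-maximal effect; 0% is about no effect; scaled to a free AFC standard on each plate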
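Compound autofluorescence profiled at 405 nm ex/520 nm em during kinetic caspase 1 run (50 nM enzyme, 5 uM Ac-WEHD-AFC, HEPES pH 7.5, 10 mM DTT). Titration up to 57 uM; baseline from regression intercept, normalized to AFC standard curve.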
A647 autofl: compound fluoresces in the A647 spectral region. 59,000 tested, under 10 active. max dye-equivalent concentration, M. Compound fluorescence, A647 channel (570/671 nm), Tris buffer. AID 592; active means above 1 µM dye equivalent; inconclusive means 0.1 to 1 µM; inactive means 0.1 µM or less;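 also: values scaled relative to a standard on each plate; highest value over a series up to 38 µM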
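Buffer was dispensed, compounds and Alexa 647 standards were pin-transferred, and plates sat 15 min at room temperature. Intensity at 570/671 nm was then converted to dye-equivalent concentration using the plate's A647 standard curve.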
Resorufin autofl: compounds fluorescent in resorufin spectral region; max dye-equivalent concentration, M; Compound fluorescence, resorufin region 547/598 nm, buffer; stronger effect = higher value; actives 0.04% (n = 59,000); AID 588; active = above 10 nM dye equivalent; inconclusive = 1 to 10 nM; inactive = 1 nM or less; a few of its hits are not listed in these tables; also: highest value over a series up to 38 µM
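Intrinsic fluorescence profiled in the resorufin window (ex 547 nm, em 598 nm) after 15 min at room temperature in pH 8.0 Tris buffer (100 mM); responses normalized against a six-point resorufin standard series as dye-equivalent concentration.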
TSHR agonist: TSH receptor (human) agonism; P16473; HEK293-CNG-TSHR cells (CNG channel as cAMP sensor), membrane potential dye, cAMP; Potency, µM (titrated, usually from 57.1 µM), inactives show at the top dose activation, most hits filed as activators; actives 0.48% (n = 73,000); AID 926; active = well fitted activation curve of enough size with the parental cells flat; inconclusive = any curve in the parental cells; inactive = parental cells flat and receptor cells flat or falling; also: potency is read from the fitted curve at half-maximal effect; % of control where 0% means no effect; weak receptor curves with flat parental cells got no call and are not listed
Target sequence (P16473 whole entry, looked up): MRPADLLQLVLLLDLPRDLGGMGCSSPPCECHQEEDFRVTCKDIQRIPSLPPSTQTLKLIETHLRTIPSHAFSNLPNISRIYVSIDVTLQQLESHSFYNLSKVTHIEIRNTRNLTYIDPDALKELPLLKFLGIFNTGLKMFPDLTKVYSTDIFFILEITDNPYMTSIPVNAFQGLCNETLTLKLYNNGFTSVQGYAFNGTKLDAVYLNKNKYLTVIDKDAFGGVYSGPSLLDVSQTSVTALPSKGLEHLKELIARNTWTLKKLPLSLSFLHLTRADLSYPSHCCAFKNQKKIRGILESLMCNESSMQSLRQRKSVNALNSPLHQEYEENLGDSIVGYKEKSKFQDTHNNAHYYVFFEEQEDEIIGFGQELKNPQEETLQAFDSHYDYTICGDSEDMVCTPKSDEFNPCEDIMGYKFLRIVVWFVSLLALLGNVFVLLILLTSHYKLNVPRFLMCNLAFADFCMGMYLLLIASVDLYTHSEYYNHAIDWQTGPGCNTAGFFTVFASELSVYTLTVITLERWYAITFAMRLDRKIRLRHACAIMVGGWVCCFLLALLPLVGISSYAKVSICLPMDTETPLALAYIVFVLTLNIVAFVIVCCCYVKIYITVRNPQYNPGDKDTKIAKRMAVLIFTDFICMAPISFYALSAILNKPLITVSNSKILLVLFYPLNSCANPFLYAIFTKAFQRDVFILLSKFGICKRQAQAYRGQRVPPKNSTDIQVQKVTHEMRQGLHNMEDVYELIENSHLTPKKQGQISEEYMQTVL
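cAMP rise detected as CNG-channel membrane depolarization by fluorescent dye (emission 590 nm), 30 min after compound, following 60 min dye loading containing 100 uM RO 20-1724 at room temperature. Cells: TSHR/CNG HEK 293, with parental CNG HEK 293 as control.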
The depositor's hits bear a star; i = inactive; ? = inconclusive; . = no result given; [ ] = remark or other dose. These rows are one share of the data (hit frequency here may not be typical).

SMILES	A488 fluor	AID923	A647 autofl	Resorufin autofl	TSHR agonist
CC(=O)Oc1cccc(N2C(=O)C3CC=C(Cl)CC3C2=O)c1 (centres undefined)	.	1.5%	.	.	21%
COc1ccc(C(c2sc3ncnn3c2O)N2CCN(c3ccccc3F)CC2)cc1OC (centres undefined)	.	0.2%	.	.	6%
COc1ccc(C2C(C(=O)Nc3cccnc3)=C(C)Nc3nc(-c4ccco4)nn32)cc1 (centres undefined)	.	0.0%	.	.	?
CCOC(=O)C1CCCN(C(=O)C(C)Oc2ccc(Cl)cc2Cl)C1 (centres undefined)	i	-0.8%	1e-09	i	21%
Cc1cccc(CN2CCNC2=O)c1	i	2.7%	1e-09	i	-10%
COc1ccc(N2CCN(C(c3ccccc3)c3nnnn3Cc3ccc(F)cc3)CC2)cc1 (centres undefined)	i	-1.3%	1e-09	i	5%
COc1ccc(CCNC(=O)CSc2nnc(-c3cccc(C)c3)o2)cc1OC	i	0.7%	2.2e-08	i	10%
Cc1noc(C)c1C(=O)N1CCc2ccccc2C1	i	3.0%	2.3e-08	i	.
O=C(CCS(=O)(=O)Cc1ccccc1F)N1CCc2ccccc2C1	i	-0.2%	3e-08	i	-2%
Nc1ccc2oc(-c3ccccn3)nc2c1	i	3.1%	1e-09	i	-3%
Nc1ncnc2c1ncn2[C@@H]1O[C@@H](CO)[C@H](O)[C@@H]1O	i	-4.1%	1.5e-09	i	?
Cc1cc(-n2c(C)cc(C(=O)CSc3nnnn3-c3ccccc3)c2C)no1	i	-0.9%	1e-09	i	20µM*
O=C(NCCC1=CCCCC1)N[C@@H](Cc1ccccc1)C(=O)O	i	-1.5%	1e-09	i	5%
COC(=O)c1ccc(COC(=O)c2ccccn2)cc1	i	0.0%	1e-09	i	-10%
C=CCNC(=O)c1ccc(C)cc1Cl	.	1.1%	.	.	-5%
CS(=O)(=O)c1ccc2nc(NC(=O)C3C4C=CC(C4)C3C(=O)O)sc2c1 (centres undefined)	i	-0.9%	7.7e-09	i	-9%
COc1cccc(-c2nc(NCc3ccc(OC)cc3OC)c3ccccc3n2)c1	i	2.2%	8.2e-09	i	?
O=c1[nH][nH]c2nc(C(F)(F)F)cc(C(F)(F)F)c12	i	0.5%	2.5e-08	i	16%[11.4 µM]
COc1ccc(N2C(=O)C(CC(=O)O)S/C2=C\C(C)=O)cc1 (centres undefined)	i	-1.5%	7e-08	i	-6%
COc1ccc(Cc2nnc(SCC(=O)Nc3nc(C)cs3)o2)cc1	i	-0.7%	2.4e-08	i	-3%
COc1ccc(CN(Cc2cc3ccc(C)cc3[nH]c2=O)Cc2nnnn2C2CCCC2)cc1	i	-0.8%	1e-09	i	?
CCOC(=O)c1cc(CC)sc1NC(=O)Cc1ccsc1	i	-0.5%	1e-09	i	?
O=C(CC12CC3CC(CC(C3)C1)C2)NCC(=O)N1CCCC1	i	1.9%	3e-09	i	16%
CCOC(=O)c1sc2nc(N3CCOCC3)c3c(c2c1N)CC(C)(C)N(C)C3	.	13%	.	.	-10%
CCOC(=O)c1c(C)c(C(=O)N2CCN(c3cccc(Cl)c3)CC2)c(C)n1C	i	2.7%	1e-09	i	6%[11.4 µM]

Among those listed so far, 3 contain an aryl thioether with sulfur outside any ring.
SMILES	A488 fluor	AID923	A647 autofl	Resorufin autofl	TSHR agonist
COc1ccc(CCNC(=O)CSc2nnc(-c3cccc(C)c3)o2)cc1OC	i	0.7%	2.2e-08	i	10%
Cc1cc(-n2c(C)cc(C(=O)CSc3nnnn3-c3ccccc3)c2C)no1	i	-0.9%	1e-09	i	20µM*
COc1ccc(Cc2nnc(SCC(=O)Nc3nc(C)cs3)o2)cc1	i	-0.7%	2.4e-08	i	-3%

(list continues)
SMILES	A488 fluor	AID923	A647 autofl	Resorufin autofl	TSHR agonist
CCN(CC)CCOC(=O)c1cccc(Br)c1	i	1.2%	1.4e-09	i	?
CC(C)CCN1CCc2nc(-c3ccccc3)c3c(c2C1)COC(C)C3 (centres undefined)	.	-0.6%[11.5 µM]	.	.	-5%[11.4 µM]
C=CCn1c(Cc2cccs2)nnc1SCC(=O)Nc1cc(OC)cc(OC)c1	i	-1.1%	1.9e-08	i	1%
c1ccc(COc2ccc(OCCOCCn3cncn3)cc2)cc1	i	2.4%	5e-09	i	-5%
COc1ccccc1CNC(=O)[C@@H]1CCCN1C(=O)C1CCN(S(=O)(=O)c2ccc(C)cc2)CC1	i	1.4%	1.1e-09	i	5%
COc1ccc(CNc2ncncc2-c2cccc(NS(C)(=O)=O)c2)c(OC)c1	i	0.8%	2e-08	i	?
CC(C)CC(c1nnnn1CC1CCCO1)N1CCN(c2cccc(Cl)c2)CC1 (centres undefined)	i	-0.8%	1.3e-08	i	?
O=C(OCc1ccc2c(c1)OCO2)c1ccc(S(=O)(=O)N2CCCCC2)cc1	.	0.9%	.	.	?
COCCn1c(C)nc2oc3ccc(Br)cc3c(=O)c2c1=O	i	0.8%	2.1e-09	i	-16%
O=C(NC1=NC2CCCCC2N1)c1ccccc1 (centres undefined)	i	3.2%	1e-09	i	5%
COCCn1c(C)cc(C(=O)COC(=O)c2ccc(N3CCCC3=O)cc2)c1C	i	1.1%	1.5e-08	i	6%
COc1ccccc1-c1cc(C(=O)Nc2cc(C)nn2-c2ccccc2)no1	i	-1.4%	3.8e-09	i	-3%[11.4 µM]
Cc1cc(=O)oc2cc3c(cc12)OCCO3	i	-2.1%	4.7e-09	i	1%
CC1Cc2ccccc2N1C(=O)Cn1cnc2ccccc2c1=O (centres undefined)	i	-2.7%	3e-08	i	-9%
Cc1ccc(C(=O)Nc2cccc(C(=O)NCc3ccccc3)c2)o1	i	-3.6%	1e-09	i	5%
CC(C)CCN1CCc2nc(COc3ccccc3)c3c(c2C1)COC(C)C3 (centres undefined)	.	0.4%[11.5 µM]	.	.	3%[11.4 µM]
COc1ccc(C(=O)NCC(c2ccc(F)cc2)N2CCOCC2)cc1S(=O)(=O)N1CCCC1 (centres undefined)	i	-1.7%	2.8e-08	i	10%
CCC(C)(C)NC(=O)CN(Cc1ccc2c(c1)OCO2)C(=O)CCC(=O)Nc1ccccn1	i	0.9%	4.3e-08	i	2%
O=C1c2ccccc2C(Nc2ccc3c(c2)OCO3)N1Cc1ccc2c(c1)OCO2 (centres undefined)	.	-2.1%	.	.	?
CCOC(=O)c1c(NC(=O)CSc2nnnn2C)sc(CC)c1C	i	-0.9%	4e-08	i	?
C[C@]12CCC(=O)C=C1CC[C@@H]1[C@@H]2[C@@H](O)C[C@@]2(C)[C@H]1CC[C@]2(O)C(=O)CO	i	0.6%	5.7e-09	i	.
Cc1c2ccccc2c(CSC(=N)N)c2ccccc12	i	-2.6%[11.5 µM]	1e-09	i	11%[11.4 µM]
COC(=O)c1[nH]c2ccc(Cl)cc2c1NC(=O)CCN1CCOCC1	i	0.7%	4.4e-09	i	11%
O=C(Nc1ccon1)c1ccccc1Cl	i	-2.1%	4.2e-08	i	3%
COc1ccc(NC(=O)c2cccc(Cn3cc(Br)cn3)c2)cn1	i	-0.2%	1e-09	i	-1%

One compound at a time, as listed above:
Profile of C=CCNC(=O)c1ccc(C)cc1Cl → A488 fluor = .; AID923 = 1.1%; A647 autofl = .; Resorufin autofl = .; TSHR agonist = -5%
Profile of Nc1ccc2oc(-c3ccccn3)nc2c1 → A488 fluor = i; AID923 = 3.1%; A647 autofl = 1e-09; Resorufin autofl = i; TSHR agonist = -3%
Profile of COc1ccc(C(c2sc3ncnn3c2O)N2CCN(c3ccccc3F)CC2)cc1OC (centres undefined) → A488 fluor = .; AID923 = 0.2%; A647 autofl = .; Resorufin autofl = .; TSHR agonist = 6%

(more compounds)
SMILES	A488 fluor	AID923	A647 autofl	Resorufin autofl	TSHR agonist
O=C(CCCn1c(=S)[nH]c2cc3c(cc2c1=O)OCO3)N1CCN(c2ccc(F)cc2)CC1	i	1.3%	1e-09	i	12%
COc1ccccc1C[C@@H](Cc1nc2ccccc2[nH]1)c1nc2ccccc2[nH]1	i	.	1.8e-09	i	.
Cc1ccc(S(=O)(=O)N2CCN(C(=O)C3Cc4ccccc4CN3C(=O)c3ccco3)CC2)cc1 (centres undefined)	i	1.0%	2.2e-09	i	9%
CC(Cc1ccccc1)C(=O)NCCO (centres undefined)	.	-1.4%	.	.	?
O=C(NCCC1=CCCCC1)c1ccc(F)c(S(=O)(=O)N2CCOCC2)c1	i	-0.4%	3.8e-09	i	16%
CCN(CC)c1ncnc2sc(C(=O)N3CCN(c4ccccc4)CC3)c(C)c12	i	1.4%	1e-09	i	.
Cc1ccc(Cn2nnc3c(=O)[nH]c(C4CCN(S(=O)(=O)c5cc(C)ccc5C)CC4)nc32)cc1	i	1.5%	3.6e-08	i	2%[11.4 µM]
CC(C)(C)NC(=O)C(c1ccco1)N(C(=O)Cn1nnc(-c2ccc(F)cc2)n1)c1ccccc1 (centres undefined)	i	-0.3%	1e-09	i	10%
Cc1ccc(Cl)cc1N1CCN(C(=O)C2CCN(S(=O)(=O)c3cnc[nH]3)CC2)CC1	i	-1.0%	2e-09	i	9%
Nc1nonc1-c1nc2ccccc2n1Cc1ccccc1	i	4.7%	2.9e-08	i	?
COc1ccc2c(c1)Cc1cc(N=[N+]([O-])c3ccc4c(c3)Cc3cc(OC)ccc3-4)ccc1-2	i	-2.4%[11.5 µM]	1e-09	i	-2%[11.4 µM]
O=C1C(Cl)=C(NCC2CCCO2)C(=O)N1Cc1ccccc1 (centres undefined)	i	3.7%	1e-09	i	5%
O=C(Cc1cccs1)N1CCCC(c2nc3c(nnn3Cc3cccc(Cl)c3)c(=O)[nH]2)C1 (centres undefined)	i	-0.5%	7e-09	i	0%
COc1cc(OC)c(C2=NOC(C(=O)Nc3cc(C)nn3-c3ccccc3)C2)cc1Cl (centres undefined)	i	-0.1%	5e-09	i	3%
COCCNC(=O)c1ccc(C(=O)NCCOC)s1	i	-1.9%	3.9e-08	i	6%
CCCNC(=O)C1CCN(S(=O)(=O)c2ccc(Br)cc2)CC1	i	-1.1%	8.8e-09	i	14%
c1ccc(N2CCN(c3ccccc3)C2c2cccs2)cc1	.	4.0%	.	.	26%
O=C(c1ccccc1)c1ccc(OCC(O)CN2CCOCC2)cc1 (centres undefined)	i	1.2%	2.4e-08	i	-7%
COc1ccc(OC)c2[nH]c(=O)c(CCNS(=O)(=O)c3ccc(C)cc3)cc12	i	-0.1%	1e-09	i	19%
CCOC(=O)c1cnc(NCc2ccccc2)nc1C	i	-0.9%	3.4e-08	i	20%
COc1ccc(CCNC(=O)CSc2nc(-c3ccco3)cc(C(F)(F)F)n2)cc1OC	i	2.5%	1.6e-08	i	0%
CCC1(c2ccc(F)cc2)NC(=O)N(CC(=O)c2ccc[nH]2)C1=O (centres undefined)	i	0.0%	1e-09	i	.
CC(=O)c1cccc(NC(=O)c2cc(-n3cnnc3)ccc2Cl)c1	i	-0.2%	2.7e-09	i	2%
O=C(CSc1ncccc1C(=O)O)c1ccccc1	.	-0.6%	.	.	9%
CCOc1cc(C(=O)N2CCc3cc(OC)c(OC)cc3C2)ccc1OC(F)F	i	0.2%	6.1e-09	i	10%
COc1ccc(C(CNC(=O)COc2ccccc2OC)N(C)C)cc1OC (centres undefined)	i	1.0%	2.8e-08	i	7%
O=C(O)c1ccc(-c2ccco2)n1Cc1ccccc1	.	0.7%	.	.	?
Cc1ccc(OCc2nnc(SCC(=O)CC(=O)Nc3ccccc3)o2)cc1	i	2.3%	1.8e-09	i	-3%

Fetched by structure from the list above:
SMILES	A488 fluor	AID923	A647 autofl	Resorufin autofl	TSHR agonist
CCOC(=O)c1c(NC(=O)CSc2nnnn2C)sc(CC)c1C	i	-0.9%	4e-08	i	?
COc1ccc(C(c2sc3ncnn3c2O)N2CCN(c3ccccc3F)CC2)cc1OC (centres undefined)	.	0.2%	.	.	6%
